Screening results: PubChem BioAssay, Johns Hopkins Ion Channel Center
CHT allo act – human CHT allosteric activation; B-score at 10 µM; Q9GZV3; CHT-expressing cells, membrane potential dye, choline EC20; active compounds read high; LV-AA mutant CHT in HEK293 cells; AID 488977; hit rate 0.49% among 310,000;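 active = initial fluorescence not abnormally high and integrated response B-score, plate-corrected, over 3 SD above library mean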
Target sequence (Q9GZV3 whole entry, looked up): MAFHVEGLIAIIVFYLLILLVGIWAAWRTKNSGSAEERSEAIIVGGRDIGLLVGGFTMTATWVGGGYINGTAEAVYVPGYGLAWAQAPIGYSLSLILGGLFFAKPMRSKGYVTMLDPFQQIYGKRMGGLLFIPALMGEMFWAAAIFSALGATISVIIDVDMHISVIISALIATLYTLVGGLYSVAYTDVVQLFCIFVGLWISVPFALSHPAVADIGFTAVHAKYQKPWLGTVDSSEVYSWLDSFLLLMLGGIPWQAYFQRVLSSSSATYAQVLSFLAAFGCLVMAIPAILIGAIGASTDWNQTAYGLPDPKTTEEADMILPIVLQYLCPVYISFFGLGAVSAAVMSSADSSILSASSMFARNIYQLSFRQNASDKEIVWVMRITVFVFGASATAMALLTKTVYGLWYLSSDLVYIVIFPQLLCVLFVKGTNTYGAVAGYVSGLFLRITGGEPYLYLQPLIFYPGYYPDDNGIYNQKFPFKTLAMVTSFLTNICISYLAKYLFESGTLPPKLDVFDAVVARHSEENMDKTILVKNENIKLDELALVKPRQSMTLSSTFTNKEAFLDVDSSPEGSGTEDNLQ
Calls only; i = inactive.

Cc1cccc(NC(=O)COc2ccc(Br)cc2/C=N/O)c1
  CHT allo act = i
CC(Sc1nc2ncc(Cl)cc2[nH]1)C(=O)c1c(N)n(C)c(=O)n(C)c1=O (stereo not drawn)
  CHT allo act = i
COc1ccccc1CNS(=O)(=O)c1ccc2c(c1)NC(=O)CO2
  CHT allo act = i
CCN1c2ccccc2-c2nc3ccccc3n2C1c1cccnc1 (stereo not drawn)
  CHT allo act = i
Cc1cccnc1NC(=O)CNC(=O)c1cccs1
  CHT allo act = i
CCCCNC(=O)C(NS(=O)(=O)c1cccc2nsnc12)c1ccccc1 (stereo not drawn)
  CHT allo act = i
O=C1N(Cc2cccnc2)C[C@@H]2C[C@@H](c3ccc(-c4ccccc4)cc3)N3CCC[C@@]123
  CHT allo act = i
N#Cc1ccccc1Oc1ccccc1C=O
  CHT allo act = i
Cc1cc(C)n2nc(SCC(N)=O)nc2n1
  CHT allo act = i
CN(CCO)C(=O)c1cccc2c1-c1ccccc1C2=O
  CHT allo act = i
O=C(Cn1nnc(-c2cccs2)n1)N1CCOCC1
  CHT allo act = i
O=C(COc1ccc(F)cc1)N(CC1=CCS(=O)(=O)C1)c1ccccc1
  CHT allo act = i
COCCCN1C(=O)C(O)=C(C(=O)c2ccco2)C1c1ccc(Br)cc1 (stereo not drawn)
  CHT allo act = i
CCN(CC)C(=O)C[n+]1ccc(C(N)=O)cc1
  CHT allo act = i
COc1cc2c(cc1OC)C(c1ccccc1)CC2=O (stereo not drawn)
  CHT allo act = i

O=C(O)c1ccc(COc2ccccc2/C=C2\NC(=O)N(Cc3ccc(F)cc3)C2=O)cc1
  CHT allo act = i
Cc1ccc(C(=O)O/N=C/c2c(C)nn(C)c2Cl)cc1
  CHT allo act = i
O=C(Nc1nc2c(s1)C(=O)CCC2)c1ccccc1
  CHT allo act = i
CCOc1ccccc1NC(=O)CC1NCCNC1=O (stereo not drawn)
  CHT allo act = i
O=[N+]([O-])c1cccc(Nc2nc(Cl)nc(Cl)n2)c1
  CHT allo act = i
CC(=O)c1cccc(NC=C2C(=O)OC3(CCCCC3)OC2=O)c1
  CHT allo act = i
O=[N+]([O-])c1cccnc1Sc1ccccc1Cl
  CHT allo act = i
Cc1ccc(Oc2nnc(-c3cccs3)c3ccccc23)cc1
  CHT allo act = i
CN(C)CCNC(=O)C(=O)Nc1cc2c3c(c1)CCC(=O)N3CCC2
  CHT allo act = i
COc1ccc(CCN(C)C(=O)c2cc(-c3ccc(C)cc3)nc3ccccc23)cc1OC
  CHT allo act = i
C=CCNC(=O)c1ccc(N(C)S(=O)(=O)c2ccc(OC)cc2)cc1
  CHT allo act = i
FC(F)(F)c1cccc(NC(=S)N2CCN(c3ccccc3)CC2)c1
  CHT allo act = i
CCCCNC(=O)c1onc(CSc2cc(C)ccc2C)c1C(=O)O
  CHT allo act = i
CC(C)(C)NC(=O)C(c1ccncc1)N(C(=O)CNC(=O)c1ccco1)c1ccc(F)cc1 (stereo not drawn)
  CHT allo act = i
COc1cc(OC)c(C2C(C(=O)O)c3ccccc3C(=O)N2C)cc1OC (stereo not drawn)
  CHT allo act = i

Exported in CSV form: part of the list above
smiles,CHT allo act
O=[N+]([O-])c1cccnc1Sc1ccccc1Cl,i
CC(C)(C)NC(=O)C(c1ccncc1)N(C(=O)CNC(=O)c1ccco1)c1ccc(F)cc1 (stereo not drawn),i
CN(C)CCNC(=O)C(=O)Nc1cc2c3c(c1)CCC(=O)N3CCC2,i
Cc1ccc(Oc2nnc(-c3cccs3)c3ccccc23)cc1,i
O=C(Nc1nc2c(s1)C(=O)CCC2)c1ccccc1,i

(list continues)
O=C(CN1CCN(Cc2ccccc2)CC1)N/N=C\C=C/c1ccco1
  CHT allo act = i
O=C(c1ccccc1)N1CCCOC1c1ccccc1 (stereo not drawn)
  CHT allo act = i
COC(=O)CNC(c1ccccc1Cl)c1cc(Br)ccc1NS(=O)(=O)c1ccc(C)cc1 (stereo not drawn)
  CHT allo act = i
Cc1oc2cc(O)cc(O)c2c(=O)c1-c1ccc2c(c1)OCCCO2
  CHT allo act = i
COCCn1c(SCC(=O)N2CCCCCC2)nc2c([nH]c3ccccc32)c1=O
  CHT allo act = i
COC(=O)[C@]1(Cc2ccccc2)N[C@H](c2ccc(-c3ccc(OC)cc3)cc2)[C@@H]2C(=O)N(C)C(=O)[C@@H]21
  CHT allo act = i
O=c1cc(CO)oc(C(Nc2ccccn2)c2ccccc2Cl)c1O (stereo not drawn)
  CHT allo act = i
CC(C)(C)C1CCc2c(sc(NC(=O)c3ccco3)c2C(N)=O)C1 (stereo not drawn)
  CHT allo act = i
Cc1ccc(NC(=O)CN(C)C(=O)C(C)OC(=O)CNC(=O)c2ccc(Cl)c([N+](=O)[O-])c2)cc1 (stereo not drawn)
  CHT allo act = i
O=C(NCc1ccccc1)C(c1ccccc1)N(C(=O)c1csnn1)C1CC1 (stereo not drawn)
  CHT allo act = i
COc1ccc2[nH]c3c(=O)n(CCCCC(=O)NCCC(C)C)c(=S)[nH]c3c2c1
  CHT allo act = i
COc1ccc(Cc2nc3c4c(ncn3n2)Oc2ccc3ccccc3c2C4c2ccc(OC)c(OC)c2)cc1 (stereo not drawn)
  CHT allo act = i
CC1(C)NC(=O)N(CC(=O)N2CCC(Cc3ccccc3)CC2)C1=O
  CHT allo act = i
COc1ccc(NC(=O)CCN2CCN(S(=O)(=O)c3ccc(Br)cc3)CC2)cc1
  CHT allo act = i
CCCCn1c(CN2CCN(C(=O)OCC)CC2)nc2c1c(=O)n(C)c(=O)n2C
  CHT allo act = i

Cc1nn(Cc2ccccc2)c(C)c1NC(=O)Cn1nc([N+](=O)[O-])c(Cl)c1C
  CHT allo act = i
COc1ccc(-c2cn3c(C)c(C(=O)N4CCN(c5ccccc5F)CC4)sc3n2)cc1
  CHT allo act = i
COC(=O)C(NC(=O)CSc1nc(N)cc(=O)[nH]1)c1ccccc1 (stereo not drawn)
  CHT allo act = i
CC(C)NC(=O)CSc1nc2ccccc2n1-c1ccccc1
  CHT allo act = i
C=CSc1sc(Cl)c(N(CC)CC)c1[N+](=O)[O-]
  CHT allo act = i
Cc1ccc(-n2nc3c(c2NC(=O)c2c(-c4ccccc4Cl)noc2C)CS(=O)(=O)C3)c(C)c1
  CHT allo act = i
CN(Cc1cccc(C(F)(F)F)c1)C(=O)C1CCC(=O)N(CC2CCCCC2)C1 (stereo not drawn)
  CHT allo act = i
CCOc1ccc(C(=O)Nc2c(C(=O)N3CCC(N4CCCCC4)CC3)oc3ccccc23)cc1
  CHT allo act = i
COc1ccc(-c2nnc(N(C)C(=O)c3ccco3)s2)cc1OC
  CHT allo act = i
CCCC(=O)Nc1nc2c(s1)COc1ccccc1-2
  CHT allo act = i
CCOC(=O)C1CCCN(C(=O)CNC(=O)c2nn(-c3ccc(OC)c(Cl)c3)c(=O)c3ccccc23)C1 (stereo not drawn)
  CHT allo act = i
CCCCOCCCNC(=O)c1ccc2c(c1)OCO2
  CHT allo act = i
CN(c1ccc(O)cc1)c1nc(-c2ccccc2)cs1
  CHT allo act = i
Cc1ccc(C(=O)c2ccccc2C(=O)OCC(=O)NC(C)(C)C)cc1
  CHT allo act = i
O=C(CN1CCN(S(=O)(=O)N2CCOCC2)CC1)Nc1cc(Cl)cc(Cl)c1
  CHT allo act = i

COC(=O)c1cc(CNC(=O)c2ccccc2Cl)ccc1OC
  CHT allo act = i
COCCNC(=O)CC(c1ccccc1)c1ccccc1
  CHT allo act = i
CC(C)C(OC(=O)c1ccco1)C(=O)NC1CCCC1 (stereo not drawn)
  CHT allo act = i
CCn1cc(C(=O)NCc2cccc(F)c2)c(=O)c2cc(F)c(N3CCN(C(=O)c4ccco4)CC3)cc21
  CHT allo act = i
O=C(CN1CCN(C(=S)NC2CCCC2)CC1)Nc1ccc(Oc2ccccc2)cc1
  CHT allo act = i
c1ccc2c(c1)NCCS2
  CHT allo act = i
S=c1[nH]nc(-c2cc(-c3ccco3)[nH]n2)n1-c1cccc2ccccc12
  CHT allo act = i
Cc1ccccc1NC(=O)c1ccc(NS(=O)(=O)c2cc(C(C)(C)C)cc(C)c2C)cc1
  CHT allo act = i
CC1CCN(C(=O)C2CCCN(S(C)(=O)=O)C2)CC1 (stereo not drawn)
  CHT allo act = i
COc1cc(CNC2CCC(C)C2)cc(OC)c1 (stereo not drawn)
  CHT allo act = i
CC(=O)Nc1ccc(OCC(=O)c2ccc(C)cc2C)cc1
  CHT allo act = i
COc1cc(NC(=O)Cn2cnc3sc(C)c(S(=O)(=O)N4CCOCC4)c3c2=O)cc(OC)c1OC
  CHT allo act = i
CCCC(=O)Nc1ccc(C2C(=O)c3ccccc3C2=O)cc1
  CHT allo act = i
Cc1cccc(N(Cc2ccccc2)C(=O)c2ccccc2S(C)(=O)=O)c1
  CHT allo act = i
O=C(NCCNC(=O)C1CC2CCC1C2)C1CC2CCC1C2 (stereo not drawn)
  CHT allo act = i

O=[N+]([O-])c1ccccc1Oc1cnc2ccccc2n1
  CHT allo act = i
O=C(N/N=C/c1cccc([N+](=O)[O-])c1)C1CC(=O)N(c2ccc(Br)cc2)C1 (stereo not drawn)
  CHT allo act = i
CCN(C(=O)COC(=O)c1nn(-c2ccccc2)c(=O)c2ccccc12)C1CCS(=O)(=O)C1 (stereo not drawn)
  CHT allo act = i
CCNC(=S)N1CCc2ccccc2C1
  CHT allo act = i
O=C(NCc1ccccn1)C(=O)NCC(c1ccco1)N1CCOCC1 (stereo not drawn)
  CHT allo act = i
O=S(=O)(c1ccccc1Cl)N1CCCC1c1nc(-c2cccc(Cl)c2)no1 (stereo not drawn)
  CHT allo act = i
Cc1cc(C(=O)Nc2c(C)n(C)n(-c3ccccc3)c2=O)c2ccccc2n1
  CHT allo act = i
CCCOc1cccc(C(=O)Nc2ccc3c(c2)OCCO3)c1
  CHT allo act = i
CCCCN1C(Nc2ccccc2)=NC[C@@H]1CC(C)C
  CHT allo act = i
Nc1ccc(C(=O)OCC(=O)N2CCN(C(=O)c3ccco3)CC2)cc1[N+](=O)[O-]
  CHT allo act = i
CCSc1nnc2ccc(-c3ccc(C)cc3)nn12
  CHT allo act = i
COc1ccc(-c2ccc(SCC(=O)c3ccccc3)nn2)cc1OC
  CHT allo act = i
O=C(CCn1c(=O)c2ccccc2n(CC(=O)NC2CCCC2)c1=O)NCc1ccco1
  CHT allo act = i
COc1ccc(NC(=O)CN(C)C(=O)/C=C/c2cn(-c3ccccc3)nc2-c2ccc(C)cc2)cc1
  CHT allo act = i
COc1ccc(CN2CC(=O)N(c3ccc(Cl)cc3)C2=S)cc1OC
  CHT allo act = i

O=C1C2C3C=CC(C3)C2C(=O)N1c1ccc(Cc2ccncc2)cc1 (stereo not drawn)
  CHT allo act = i
CC(=O)c1cc2c(cc1NS(=O)(=O)c1cccc(C(=O)O)c1)OCO2
  CHT allo act = i
O=C(CN(C(=O)CNS(=O)(=O)c1ccc(F)cc1)c1ccccc1)NCc1ccco1
  CHT allo act = i
CC(C)Cn1c(N)c(C(=O)COC(=O)c2cccnc2Cl)c(=O)n(C)c1=O
  CHT allo act = i
O=C(NC(=S)Nc1cccc(Cl)c1Cl)C1CC1
  CHT allo act = i
COc1ccc(NC(=O)CN2C(=O)C(C)SC(C)C2=O)cc1 (stereo not drawn)
  CHT allo act = i
CCc1ccc(CN(C)Cc2nc(Cc3cccc(C(F)(F)F)c3)no2)nc1
  CHT allo act = i
CCOc1cc2[nH]c(=O)n(CCC(=O)N3CCN(c4ccccc4OC)CC3)c(=O)c2cc1OCC
  CHT allo act = i
Cn1c(N)c(C(=O)COC(=O)CCC2CCCC2)c(=O)n(C)c1=O
  CHT allo act = i
CCc1ccc(OCC(=O)Nc2cccc3nsnc23)cc1
  CHT allo act = i
Cc1cccc(/C=N/NC(=O)c2ccc(NC(=O)c3ccc(F)cc3)cc2)n1
  CHT allo act = i
Cc1ccc(OCC(=O)OCc2c(C)noc2C)cc1C
  CHT allo act = i
CC(=O)N1c2ccccc2Nc2ccccc21
  CHT allo act = i
COc1ccc(O)c(C(=O)CC(=O)c2ccc(F)cc2)c1
  CHT allo act = i
COc1ccc(-c2cc(C(=O)N3CCOCC3)c3ccccc3n2)cc1OC
  CHT allo act = i

Cc1csc(NC(=O)c2ccc(C)c([N+](=O)[O-])c2)n1
  CHT allo act = i
NC(=O)CN1C(=O)C(O)(CC(=O)/C=C\c2ccc3c(c2)OCO3)c2ccccc21 (stereo not drawn)
  CHT allo act = i
CC(C)(C)c1ccc(-c2ncccc2O)cc1
  CHT allo act = i
O=C1C2C3C=CC(C3)C2C(=O)N1Cc1ccc(CN2C(=O)C3C4C=CC(C4)C3C2=O)cc1 (stereo not drawn)
  CHT allo act = i
CCC(C)(C)NC(=O)c1cc(OC)c(OC)cc1[N+](=O)[O-]
  CHT allo act = i
O=C(O)CCCC(=O)NCc1ccccn1
  CHT allo act = i
CCOC(=O)CCc1c(C)c2ccc(OCc3cc([N+](=O)[O-])ccc3OC)cc2oc1=O
  CHT allo act = i
CC1CC(=O)N(c2ccc(NCCc3ccc(O)cc3)c([N+](=O)[O-])c2)C1=O (stereo not drawn)
  CHT allo act = i
CC(=O)c1cccc(NC(=O)C(C)N2CCc3ccccc3C2)c1 (stereo not drawn)
  CHT allo act = i
N#C/C(=C\c1ccccc1C(=O)O)c1nc2ccccc2[nH]1
  CHT allo act = i
O=C(CN1C(=O)NC2(CCCC2)C1=O)N1CCN(S(=O)(=O)c2ccccc2Br)CC1
  CHT allo act = i
Cc1cccc(NC(=O)C2CC(=O)N(c3ccccc3)C2)c1C (stereo not drawn)
  CHT allo act = i
C=CCSc1nnc2c(n1)OC(c1ccccn1)N(C(C)=O)c1ccccc1-2 (stereo not drawn)
  CHT allo act = i
CN(C)C(=O)Nc1ccccc1CC[N+](=O)[O-]
  CHT allo act = i
CCOC(=O)C1CCCN(CCC(=O)Nc2cc(C)ccc2C)C1 (stereo not drawn)
  CHT allo act = i

COc1ccc(N(CC(=O)NC2CCCC2)C(=O)CCC(=O)Nc2cc(C)on2)cc1
  CHT allo act = i
Cc1onc(-c2ccccc2)c1C(=O)Nc1c(C)n(C)n(-c2ccccc2)c1=O
  CHT allo act = i
O=C(NCc1ccc(F)cc1)N[C@@H](Cc1ccccc1)C(=O)O
  CHT allo act = i
COC(=O)c1ccc(/C=N/NC(=O)CC(=O)NC2CCCCC2)cc1
  CHT allo act = i
O=C1CCC(=O)N1CC(=O)N1CCCc2ccccc21
  CHT allo act = i
COc1cccc(C2C(C(N)=O)=C(C)Nc3nc(CCCO)nn32)c1OC (stereo not drawn)
  CHT allo act = i
COc1ccccc1NC(=O)CS(=O)(=O)c1cn(CC(=O)N(C(C)C)C(C)C)c2ccccc12
  CHT allo act = i

Some of the compounds tested, and most or all hits are left out here.
